TRPML1 inh: qHTS for Inhibitors of the Human Mucolipin Transient Receptor Potential 1 (TRPML1); activity change, negative = inhibition, % (concentration not given with the values); AID 624415, 2012; actives 0.02% (n = 390,000); TRPML1-inducible cells, Ca2+ dye fluorescence, FDSS; stronger effect = lower value; inhibition of EC80 agonist-evoked calcium signal; Mucolipin-1 (Homo sapiens), Q9GZU1; in the data active means activity change below about -50%; inconclusive means about -30% to -50%; inactive means above about -30%;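 further: stimulus is agonist 54-4 at its EC80 concentration; on the % scale 0 is the no-effect control and ±100 the full control effect; compound concentration not given in the record; the text of the record puts the active cut at -80%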
Target sequence (Q9GZU1 whole entry, looked up): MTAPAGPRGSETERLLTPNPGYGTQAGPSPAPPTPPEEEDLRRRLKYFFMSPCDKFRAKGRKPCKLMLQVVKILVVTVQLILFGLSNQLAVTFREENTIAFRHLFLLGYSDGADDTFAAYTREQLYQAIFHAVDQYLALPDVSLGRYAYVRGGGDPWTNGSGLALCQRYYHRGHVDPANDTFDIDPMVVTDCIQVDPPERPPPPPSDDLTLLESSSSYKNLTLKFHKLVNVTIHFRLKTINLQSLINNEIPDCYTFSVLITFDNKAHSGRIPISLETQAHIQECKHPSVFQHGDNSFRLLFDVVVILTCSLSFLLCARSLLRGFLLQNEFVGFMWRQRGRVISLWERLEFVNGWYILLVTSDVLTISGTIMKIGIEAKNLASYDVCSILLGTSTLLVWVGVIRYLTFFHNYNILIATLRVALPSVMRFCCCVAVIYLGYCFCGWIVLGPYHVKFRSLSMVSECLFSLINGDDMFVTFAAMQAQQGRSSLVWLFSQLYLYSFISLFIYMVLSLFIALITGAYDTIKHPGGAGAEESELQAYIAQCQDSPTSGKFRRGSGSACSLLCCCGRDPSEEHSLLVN
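Calcium fluorescence in TRPML1-DL cells induced overnight with Tet: a 110 s read after compound pin addition, then a 110 s antagonist read after challenge with 54-4 at 4 uM final (EC80).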
Six1-Eya2 blk: qHTS Assay for Inhibitors of the Six1/Eya2 Interaction; AlphaScreen GST-Six1/His-Eya2 binding, biochemical; stronger effect = lower value; control for the full effect not named in the record; actives 0.56% (n = 360,000); Homeobox protein SIX1 (Homo sapiens) + Protein phosphatase EYA2 (Homo sapiens), …; activity change, % (no concentration beside the values); in the data active = activity change below about -65%; inconclusive = about -30% to -65%; inactive = above about -30%; further: on the % scale 0 is the no-effect control and ±100 the full control effect; compound concentration not given in the record
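AlphaScreen luminescence read after one hour at 37 °C in darkness. Pin-transferred compounds met GST-Six1 and His-Eya2 protein (5X stock 250 nM/500 nM) plus glutathione donor and Ni-chelate acceptor beads (5X, 50 ug/mL).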
TRPML1 ag: qHTS for Agonists of the Human Mucolipin Transient Receptor Potential 1 (TRPML1); AID 624414, 2012; TRPML1-expressing cells, Ca2+ dye fluorescence, FDSS; host cell line not named in the record; reference of the full effect not given here; activation, % (no concentration beside the values); Mucolipin-1 (Homo sapiens), Q9GZU1; actives 0.12% (n = 410,000); in the data active = activation above about 50%; inconclusive = about 30% to 50%; inactive = below about 30%; further: 0% is about no effect; the text of the record puts the active cut at 80%
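Tetracycline-induced TRPML1-DL cells are seeded and incubated overnight before loading with a no-wash Ca2+ dye and quencher. Agonist activity is taken from the 110 s fluorescence read following compound pin-transfer on an FDSS, before EC80 54-4 challenge.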
D2 potentiator: Beta-Arrestin HTS for Positive Allosteric Modulators of the Human D2 Dopamine Receptor: Potentiators. DiscoveRx D2 beta-arrestin cells, luminescence, 90 min; 100% = 57 uM dopamine signal. potentiation, % (test concentration not listed). actives 0.23% (n = 360,000); active = potentiation of 50% or more; inconclusive = 30% to 50%; inactive = 30% or less;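 further: compound concentration not given in the record; tested on top of an EC20 dose of dopamine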
Target sequence (P14416 whole entry, looked up): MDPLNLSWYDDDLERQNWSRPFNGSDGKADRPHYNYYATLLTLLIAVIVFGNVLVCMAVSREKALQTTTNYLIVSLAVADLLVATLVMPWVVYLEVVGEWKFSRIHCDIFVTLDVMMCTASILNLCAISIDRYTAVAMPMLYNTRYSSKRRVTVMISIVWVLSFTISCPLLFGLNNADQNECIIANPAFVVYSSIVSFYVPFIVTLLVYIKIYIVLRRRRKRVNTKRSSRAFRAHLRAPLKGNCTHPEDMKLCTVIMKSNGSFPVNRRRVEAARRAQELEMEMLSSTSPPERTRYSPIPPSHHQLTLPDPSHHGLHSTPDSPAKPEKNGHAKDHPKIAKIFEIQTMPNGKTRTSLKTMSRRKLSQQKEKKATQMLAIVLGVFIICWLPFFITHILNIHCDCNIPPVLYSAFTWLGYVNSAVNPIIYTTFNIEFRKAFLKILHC
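D2 cells co-treated with compound plus 50 nM dopamine (EC20) for 90 min at 37 deg C to detect potentiation. Beta-arrestin recruitment was read as enzyme-fragment luminescence after 1 h at ambient temperature. Full response was set by 57 uM dopamine.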
PINK1 expr mod: A Quantitative High throughput Screen to Identify Chemical Modulators of PINK1 Expression. PINK1 immunofluorescence, high-content cytometry, 24 h. Potency, µM (doses to about 76.6 µM), for the others: at the top dose activation (PINK1 increase), actives largely listed as activators. actives 0.2% (n = 410,000); active = well fitted activation curve with a large enough effect; inconclusive = small, poorly fitted or top-dose-only effect; inactive = flat fitted curve, though single readings scatter; cell line not stated here;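 further: potency means the concentration at half of the fitted maximal effect; % of control where 0% means no effect; nearly all actives have a fitted effect of over 65% in size; a mitochondrial uncoupler was the plate control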
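PINK1 protein, normally rapidly degraded, was detected by immunofluorescence after 24 hour compound treatment of a stable cell line. Titration data (5 concentrations) came from laser-scanning cytometry, with CCCP-treated wells as controls.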
D2 ag: Beta-Arrestin HTS for Positive Allosteric Modulators of the Human D2 Dopamine Receptor: Agonists; D(2) dopamine receptor (Homo sapiens), P14416; DiscoveRx PathHunter D2 beta-arrestin, luminescence, 90 min; 100% = 57 uM dopamine signal; activation, % (no concentration beside the values); actives 0.084% (n = 360,000); AID 624465, 2012; in the data active = activation above about 40%; inconclusive = about 15% to 40%; inactive = below about 15%; further: compound concentration not given in the record; the text of the record calls up to 30% inactive
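Agonist mode: compounds alone added to overnight-plated D2 PathHunter cells for 90 min at 37 C, with 57 uM final dopamine (EC100) defining full response. Beta-arrestin recruitment detected by chemiluminescent reagent, read after 1 h at ambient temperature.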
An asterisk follows results filed as active; ? = inconclusive; . = not tested or not shown; & = joins results of further samples; ! = repeats disagree; [ ] = dose if it differs, or a comment. Hits appear at their usual frequency. Share with any hit: about 1%.

SMILES	TRPML1 inh	Six1-Eya2 blk	TRPML1 ag	D2 potentiator	PINK1 expr mod	D2 ag
Cc1ccc(S(=O)(=O)N2CCOCC2)cc1C(=O)OCC(=O)c1c(N)n(C)c(=O)n(C)c1=O	-11	-25	0.2	-2	-0.7%	-4.1
O=C(c1cccs1)N1CCCC(c2nc3c(nnn3Cc3ccccc3Cl)c(=O)[nH]2)C1 (stereo unspecified)	-5	7	1.7	1	-0.4%	-1.6
COc1ccc(C2=C(C(C)=O)Sc3nnc(-c4ccc(Cl)cc4)n3N2C(C)=O)cc1OC	-10	.	1.9	.	2.1%	.
CCCNC(=O)C1(C)CCCN(C(=O)c2cccc(Cl)c2)C1 (stereo unspecified)	.	4	-0.8	-5	-0.2%	3.6
COc1ccccc1NC(=O)c1cnn(-c2ccccc2)c1-n1cccc1	7	.	-0.5	.	5.5%	.
CCOC(=O)c1ccc(-n2c(C)nc3c(cnn3-c3ccccc3Cl)c2=O)cc1	7	5	1.9	4	-0.6%	-0.8
O=C(O)c1ccc2c(c1)C(=O)N(Cc1ccccc1)C2=O	38	4	-0.8	-5	-0.6%	-3.6
CCc1ccc(OCc2nnc(SCC(=O)N3CCN(c4ccccc4)CC3)o2)cc1	-9	1	2.1	-8	2.6%	0.6
O=C(c1cccc(S(=O)(=O)N2CCCC2)c1)N1CCOCC1	14	5	0.8	-1	0.6%	-0.3
CCOc1ccc(Nc2nc(N)nc(CCl)n2)cc1	-3	-2	-0.7	-3	-3.1%	0.0
Cc1ccc(C2=NS(=O)(=O)N(C)C(C(=O)Nc3ccc4c(c3)OCO4)=C2)cc1	-12	-27	0.7	-10	2.2%	1.4
O=C1C(=O)N(CCO)C(c2ccccc2[N+](=O)[O-])/C1=C(\O)c1ccccc1 (stereo unspecified)	9	-16	-1.3	-5	-0.6%	-4.8
Cc1ccc2nc(-c3ccsc3)c(Nc3ccc(C(C)C)cc3)n2c1	5	.	-0.9	.	0.4%	.
CCOc1cc(CNCCCN2CCOCC2)cc(Cl)c1OCC(=O)NC(C)(C)C	-9	7	0.8	-8	-0.3%	-0.5
COc1cc(OC)cc(C(=O)N[C@H](C(=O)NCc2ccco2)C(C)C)c1	-12	4	0.0	1	5.0%	2.5
Cc1ccc(S(=O)(=O)NC(=O)C2(C)CCN2C(=O)c2cccc(F)c2)nc1 (stereo unspecified)	.	30	0.7	-3	0.4%	-4.1
Cc1cc(-c2ccccc2)nc2c(Br)c(C(=O)O)nn12	-19	?	3.9	-2	1.2%	-3.4
O=C(NCc1ccccn1)c1nc(-c2ccc(C(F)(F)F)cc2)no1	-2	-9	0.4	-10	-2.0%	-3.9
CS(=O)(=O)N(Cc1ccccc1)c1ccc(C(=O)NCc2ccccc2)cc1	2	4	1.0	-8	-2.9%[38.3 µM]	-2.8
O=C(CC12CC3CC(CC(C3)C1)C2)NC(=S)N1CCCCC1	28	-1	0.1	-7	0.6%	-4.8
Cc1cc(NCc2ccco2)n2ncnc2n1	0	5	-0.2	-13	4.2%	-0.5
CCCCCCNC(=O)C(C#N)c1nc2ccccc2nc1N1CCCC1 (stereo unspecified)	11	1	0.0	1	0.1%	-1.0
Cc1cc(/C=C2\SC(=S)NC2=O)c(C)n1C1CC1	-1	-30	2.6	0	-5.8%[38.3 µM]	-5.1
O=C(/C=C/c1ccco1)NCC(=O)N/N=C/c1ccc(Cl)cc1	9	3	0.0	-5	6.1%	-1.9
Cc1oc(-c2ccccc2F)nc1CS(=O)(=O)CC(=O)N1CCc2ccccc21	-1	-3	0.0	-2	-0.2%	1.4
Going on with the list:
SMILES	TRPML1 inh	Six1-Eya2 blk	TRPML1 ag	D2 potentiator	PINK1 expr mod	D2 ag
Cn1c(-c2ccc([N+](=O)[O-])cc2)nc2ccccc21	-4	14	0.5	5	2.2%	3.7
CCCc1cc(=O)oc2c(CN3CCCC3)c(O)ccc12	38	0	0.2	2	0.2%	-2.4
O=C(CSCc1cnn(-c2ccccc2)c1-n1cccc1)NCc1cccnc1	-3	-1	0.8	0	-0.2%	1.2
COc1ccc(-c2cn[nH]c2-c2ccc(OCc3ccccc3)cc2O)cc1	1	-1	1.7	6	-1.9%	5.0
CCOc1ccccc1N1CC(C(=O)Nc2c(C)n(C)n(-c3ccccc3)c2=O)CC1=O (stereo unspecified)	25	-6	-0.2	-1	3.5%	4.1
Cc1nn(-c2ccc(N3CCCCC3)nn2)c(C)c1CCC(=O)NCc1ccc(OC(C)C)cc1	18	.	-0.6	.	-0.2%	.
CCn1ccnc1CNC(=O)CC1C(=O)NCCN1Cc1ccccc1F (stereo unspecified)	-2	-2	0.2	-4	2.3%	-1.4
COc1ccccc1C=NNC(=O)c1ccccc1OCCOc1ccccc1	30	-11	5.5	-26	-1.0%	-8.3
CCNC(=O)C1CCCN(C(=O)c2ccc(C(=O)OC)cc2)CC1 (stereo unspecified)	.	3	-0.5	1	0.9%	-6.8
CCOC(=O)N1CCN(C(=O)CCCn2nnnc2CN2CCC(C)CC2)CC1	15	1	0.1	-10	-0.4%	-4.2
CC(=O)Nc1ccc(NC(=O)CSc2nc3nc(-c4cccs4)cc(C(F)(F)F)c3c(=O)[nH]2)cc1	-8	2	0.0	-9	0.7%	2.0
Cc1cc(C(F)F)n2nc(C(=O)Nc3ccccc3Br)nc2n1	-2	2	-0.6	11	2.7%	-3.7
CCOC(=O)CC(NC(=O)CCc1c(C)nc2c(-c3ccccc3)c(C)nn2c1C)c1ccc(C)cc1 (stereo unspecified)	-21	.	-0.2	.	2.2%	.
Cc1cc(NC(=O)CSc2nc3c([nH]c4ccccc43)c(=O)n2-c2ccc(Cl)cc2)no1	2	.	2.3	.	-0.2%	.
CC(=O)c1cccc(Nc2nc(=O)c3cccnc3s2)c1	-11	-14	1.3	-11	?	-2.7
CCC(=O)N1CCc2cc(Br)cc(S(=O)(=O)N(C)c3ccc(OC)cc3OC)c21	7	-10	0.0	20	7.4%	9.4
O=C(Nc1nnc(S(=O)(=O)N2CCCCCC2)s1)c1cccc(Br)c1	22&14	-12	-0.9&-0.4	-11	28µM*!	-2.5
O=C(Nc1ccc(Cl)cn1)c1ccccc1SCc1ccccc1	50	13	0.7	-15	4.6%	0.2
COc1cc(-c2nc3ccccn3c2/N=C/c2cc(OC)c(OC)c(OC)c2)ccc1O	-8	-10	-0.6	52*	6.4%	5.7
COc1ccc(C(=O)Nc2ccc(C(=O)N3CCCCC3)cc2)cc1OC	-7	-3	-0.5	-5	2.3%	-2.2
C=CCn1c(SCC(=O)N2CCc3ccccc3C2)nc2ccccc2c1=O	-5	2	0.9	1	2.2%	3.6
Cc1oc(C)c(C(=O)O)c1C(=O)O	8	2	0.3	4	-0.1%	4.3
COc1cccc(CC2(CO)CCCN(Cc3ccc(C)s3)C2)c1 (stereo unspecified)	1	-1	0.1	-17	1.5%	-4.1
CCCc1cc(C(=O)Nc2ccc(F)c(Cl)c2)no1	20	17	0.8	-16	0.4%	-4.4
COc1cccc(N=Cc2c(O)n(-c3cccc(C)n3)c(=O)c3ccccc23)c1	-4	-13	1.4	0	2.5%[38.3 µM]	1.1
Continuation:
SMILES	TRPML1 inh	Six1-Eya2 blk	TRPML1 ag	D2 potentiator	PINK1 expr mod	D2 ag
Cc1ccc(NC(=O)N2CCCC2C(=O)NCCc2ccccc2)cc1 (stereo unspecified)	-2	-3	3.3	-19	-0.8%	-3.2
O=C(CN1CCCCC1)N=Nc1c(O)[nH]c2ccccc12	4	-2	2.8	13	0.0%	0.1
O=C(NCc1ccc(F)cc1)c1cccc2c1C(=O)c1ccc(N3CCC(N4CCCCC4)CC3)cc1S2(=O)=O	-6	-1	8.2	4	1.0%	-0.9
CCOC(=O)c1c(NC(=O)CSc2c[nH]c3ccccc23)sc2c1CCC2	-6	0	1.4	-1	14%	-4.1
O=C(/C=C\c1ccco1)Nc1nc(-c2ccccc2)cs1	-3	5	0.2	-10	1.2%	2.2
COC(=O)c1cc(-c2ccc(S(=O)(=O)N3CCCCC3)cc2)c(C(F)(F)F)s1	60	8	2.8	1	12%	1.2
Cc1cc(C)cc(Nc2c(F)c(F)c(F)c(F)c2C(=O)O)c1	-15	5	4.1	29	0.3%	1.8
O=C(O)c1ccc(NCc2nc3cc4ccccc4cc3[nH]2)cc1	1	1	-0.3	-9	-3.0%	0.1
CCCNS(=O)(=O)c1ccc(CCC(=O)NCc2cccnc2)cc1	-3	5	-0.1	-1	-1.1%	0.9
CCCNC(=S)Nc1ccc(Oc2ccccc2)cc1	10	-4	0.7	-15	1.1%[38.3 µM]	-2.3
Cc1[nH]c2ccccc2c1C(=O)COC(=O)c1c(-c2ccccc2Cl)noc1C	-8	2	0.6	5	15%	1.5
O=c1[nH]ncn1-c1ccccc1	18	11	0.5	4	4.3%	5.1
COC(=O)c1ccc(CO/N=C/c2ccc(OC)cc2)o1	2	7	1.2	-9	4.4%	-1.9
COc1ccccc1NC(=O)CSc1nnc2ccc(-c3ccccn3)nn12	3	7	-0.9	21	3.8%	-0.8
CCN(CC)C(=O)c1nc[nH]c1C(=O)N(CC)CC	16	4	-0.6	-1	0.4%	-2.3
CSc1ccccc1NC(=O)c1cc(-c2ccco2)on1	7	0	-0.5	2	19%	-5.2
COC(=O)COc1cccc(NC(=O)c2ccc(Cl)cc2)c1	-9	-1	-0.5	-39	0.7%	2.6
O=C(Nc1cccc2ccccc12)OCc1ccccc1	-4	9	1.5	-6	-1.8%	-5.1
CCn1cc(CN2CCN(Cc3cccc(OC)c3)C(CCO)C2)c(C)n1 (stereo unspecified)	30	2	0.2	-10	0.3%	1.2
Oc1nc(Nc2ccc(Cl)cc2Cl)sc1/C=C1\C=Nc2ccccc21	-20	2	0.3	3	?	1.7
O=Cc1ccc(Oc2ncccn2)cc1	15	-1	-0.5	-9	-0.1%	-4.1

Laid out differently: results already given.
molecule | TRPML1 inh | Six1-Eya2 blk | TRPML1 ag | D2 potentiator | PINK1 expr mod | D2 ag
O=C(Nc1cccc2ccccc12)OCc1ccccc1 | -4 | 9 | 1.5 | -6 | -1.8% | -5.1
CCCNS(=O)(=O)c1ccc(CCC(=O)NCc2cccnc2)cc1 | -3 | 5 | -0.1 | -1 | -1.1% | 0.9
COc1ccccc1NC(=O)CSc1nnc2ccc(-c3ccccn3)nn12 | 3 | 7 | -0.9 | 21 | 3.8% | -0.8
COC(=O)c1ccc(CO/N=C/c2ccc(OC)cc2)o1 | 2 | 7 | 1.2 | -9 | 4.4% | -1.9

Sorted by value in D2 ag (falling): some entries from above.
compound | D2 ag
O=C(/C=C\c1ccco1)Nc1nc(-c2ccccc2)cs1 | 2.2
COc1ccccc1NC(=O)CSc1nnc2ccc(-c3ccccn3)nn12 | -0.8
CCCNC(=S)Nc1ccc(Oc2ccccc2)cc1 | -2.3
